# Bioassay records deposited in PubChem BioAssay by National Center for Advancing Translational Sciences (NCATS).
# GLA inh pH 4.5: inhibitors of human alpha-galactosidase A at pH 4.5 | AID 1467 | P06280 | 230,000 tested, under 10 active | purified enzyme, 4-MU-alpha-Gal fluorescence, pH 4.5 | activity change, negative = inhibition, % at 105 µM; inconclusive = small, poorly fitted or top-dose-only inhibition, or a rising curve; inactive = flat fitted curve, though single readings scatter; no compound was filed as active;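 further: 0% = full activity with enzyme and -100% = basal without enzyme; dose as in the result columns while the protocol names 77 µM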
# Rango release inh: inhibitors of RanGTP-induced Rango-importin beta complex dissociation. Biochemical FRET Rango-importin beta, RanGTP-induced dissociation. O95149+P62826. 340,000 tested, 0.071% active. Potency, µM (highest dose often 46.1 µM), for inactives: at the top dose activity change, negative = inhibition; active means falling FRET ratio curve, often poorly fitted, with flat reads before Ran was added; inconclusive means other falling curves, or compound fluorescence or quenching; inactive means flat or rising ratio curve;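 further: potency means the concentration at half of the fitted maximal effect; % of control where 0% means no effect; nearly all actives have a fitted effect of over 45% in size; -100% = wells without RanGTP and RCC1; the record marks most hits as doubtful in a second field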
#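 Rango FRET biosensor (snurportin-1 IBB flanked by N-terminal EYFP and C-terminal CFP10) at 0.1 uM, with 0.25 uM importin beta in PBS, 1mM DTT, 0.02% Tween-20, 0.1% BSA. 0.6 uM Ran, 2mM GTP and 0.2 uM RCC1 were then added for 45 min at room temperature. Inhibition read as loss of FRET rise.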
# miR-21 reporter: miR-21 reporter, rising signal. HeLa miR-21 FLuc reporter, luciferase, 48 h. Potency, µM (highest dose often 38.3 µM), for inactives: at the top dose reporter change, positive = more light. 340,000 tested, under 10 active. AID 2288; active = well fitted rising curve with a large enough effect; inconclusive = small, poorly fitted or top-dose-only effect; inactive = no such curve, though single readings can be large or run the other way;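 further: % of control where 0% means no effect; miR-21 action dims this reporter so a rising signal means less miR-21 action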
#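 Using DMEM plus 10% FBS, HeLa miR-21-FLuc cells are incubated with test compounds (final up to about 40uM) for 48 hours; firefly luciferase signal is then imaged following reagent-mediated lysis.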
# Rango complex inh: Rango-importin beta binding inhibition | Rango CFP/YFP FRET sensor + importin beta, 45 min | Potency, µM (top dose mostly 92.2 µM), for the others: at the highest dose inhibition of complex formation | 340,000 tested, 0.031% active | AID 540263; active = rising FRET ratio curve, often small or poorly fitted; inconclusive = mostly compound fluorescence or quenching in the first reads; inactive = flat curves in all reads;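 further: potency means the concentration at half of the fitted maximal effect; 0% = DMSO wells and 100% = buffer wells lacking importin beta; nearly all actives have a fitted effect of over 15% in size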
# Target sequence (Q14974 whole entry, looked up): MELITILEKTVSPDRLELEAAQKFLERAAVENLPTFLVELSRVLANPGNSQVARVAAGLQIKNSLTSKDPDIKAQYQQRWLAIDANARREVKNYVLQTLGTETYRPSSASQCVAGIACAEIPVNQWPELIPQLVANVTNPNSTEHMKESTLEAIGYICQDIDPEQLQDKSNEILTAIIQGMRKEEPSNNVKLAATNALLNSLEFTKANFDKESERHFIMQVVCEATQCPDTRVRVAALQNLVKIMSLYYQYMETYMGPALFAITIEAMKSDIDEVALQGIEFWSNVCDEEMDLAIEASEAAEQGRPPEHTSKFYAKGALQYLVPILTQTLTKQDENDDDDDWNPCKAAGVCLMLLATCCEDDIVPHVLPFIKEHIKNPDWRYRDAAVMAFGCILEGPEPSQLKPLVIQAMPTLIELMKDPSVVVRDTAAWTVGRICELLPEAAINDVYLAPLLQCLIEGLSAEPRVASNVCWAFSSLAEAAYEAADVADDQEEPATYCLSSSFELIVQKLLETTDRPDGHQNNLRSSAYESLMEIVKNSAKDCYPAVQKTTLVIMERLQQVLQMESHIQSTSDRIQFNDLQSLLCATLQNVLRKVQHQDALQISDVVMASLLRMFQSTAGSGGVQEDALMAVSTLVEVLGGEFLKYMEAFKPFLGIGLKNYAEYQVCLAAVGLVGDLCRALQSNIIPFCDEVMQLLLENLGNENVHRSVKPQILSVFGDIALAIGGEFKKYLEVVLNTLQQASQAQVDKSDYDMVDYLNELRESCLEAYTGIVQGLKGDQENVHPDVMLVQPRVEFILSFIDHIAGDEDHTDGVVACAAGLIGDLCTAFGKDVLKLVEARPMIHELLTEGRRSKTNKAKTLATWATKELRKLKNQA
#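 Inhibition scored from the CFP 486 nm/YFP 530 nm FRET ratio 45 min after adding 0.125 microM importin beta to 50 nM Rango biosensor preincubated 5 min with compound (room temperature, PBS with DTT, Tween-20, BSA). No-importin wells as positive control.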
# * = called active by the depositor; ? = inconclusive; . = not tested or not shown; & = joins results of further samples. Some of the compounds tested (hit frequency here may not be typical).
# Preview (five entries):
# Labels used below: A = GLA inh pH 4.5; B = Rango release inh; C = miR-21 reporter; D = Rango complex inh
CCc1ccc(NC(=O)c2cc(C)nn2-c2ccccc2)cc1
  A: .	B: 1%	C: -2%&-2%	D: -0.6%

O=C(COc1ccccc1Br)N1CCN(C(=O)c2ccco2)CC1
  A: .	B: 6%	C: -9%	D: -6.2%

CC(CCc1ccc(O)cc1)NCCc1ccc(O)c(O)c1 (stereo unspecified)
  A: 4	B: 21%	C: .	D: -3.4%

CC(=O)c1ccc(-c2nnc(CCC(=O)N(C)Cc3cccc4cnccc34)o2)s1
  A: -3	B: 2%	C: -3%	D: 1.6%

O=C(CSc1ccccc1)Nc1cccc(S(=O)(=O)N2CCCC2)c1
  A: -5	B: -5%	C: -28%	D: 4.7%

# All compounds of this part, from the first entry:
# Labels used below: A = GLA inh pH 4.5; B = Rango release inh; C = miR-21 reporter; D = Rango complex inh
CCc1ccc(NC(=O)c2cc(C)nn2-c2ccccc2)cc1
  A: .	B: 1%	C: -2%&-2%	D: -0.6%

O=C(COc1ccccc1Br)N1CCN(C(=O)c2ccco2)CC1
  A: .	B: 6%	C: -9%	D: -6.2%

CC(CCc1ccc(O)cc1)NCCc1ccc(O)c(O)c1 (stereo unspecified)
  A: 4	B: 21%	C: .	D: -3.4%

CC(=O)c1ccc(-c2nnc(CCC(=O)N(C)Cc3cccc4cnccc34)o2)s1
  A: -3	B: 2%	C: -3%	D: 1.6%

O=C(CSc1ccccc1)Nc1cccc(S(=O)(=O)N2CCCC2)c1
  A: -5	B: -5%	C: -28%	D: 4.7%

Cc1ccc(NC(=O)Nc2c(Cl)cccc2Cl)cn1
  A: 1	B: -25%	C: 15%	D: -0.4%

CCN1CCN(c2ccc(S(=O)(=O)N3CCCCC3)cc2NC(=O)/C=C/c2cc(OC)ccc2OC)CC1
  A: .	B: 0%	C: 0%	D: 0.3%

COc1ccc(Cn2c(=O)sc3ccccc3c2=O)cc1
  A: 6	B: -14%	C: -3%	D: -2.5%

O=c1oc(/C=C/c2ccccc2)nc2ccccc12
  A: -3	B: 4%	C: -2%	D: 0.3%

Cc1cc(Cn2nc(-c3ccccc3C)cc2C(=O)O)on1
  A: .	B: -3%	C: .	D: -4.9%

O=c1[nH]cnc2ccsc12
  A: 1	B: 17%	C: -1%	D: -0.4%

C=CCNC(=S)Nc1nc2c(cc1C(=O)OCC)COC(C)(C)C2
  A: 3	B: -3%	C: 0%	D: -5.3%

CCOc1cccc2c1OC1(C)CC2NC(=O)N1c1cccc(C(=O)NCc2ccccn2)c1 (stereo unspecified)
  A: .	B: 1%	C: 2%	D: -1.6%

Cc1ccc2c(c1)N(CC(=O)NC1CCCCC1C)C(=O)CO2 (stereo unspecified)
  A: -3	B: -3%	C: -8%	D: 1.6%

Cc1ccc(S(=O)(=O)N2CCCOC2)cc1
  A: 2	B: 0%	C: 5%	D: 9.1%

# Carrying on.
# Labels used below: A = GLA inh pH 4.5; B = Rango release inh; C = miR-21 reporter; D = Rango complex inh
c1cc2[nH]snc2c2nc(C3CC3)nc12
  A: -2	B: -5%	C: 12%	D: -1.8%

COc1ccc(OC)c(S(=O)(=O)NCCc2cn3ccsc3n2)c1
  A: 1	B: -23%	C: 1%	D: -0.2%

O=C(CCC(=O)N1CCOc2ccccc21)N1CCCCC1
  A: .	B: 10%	C: -1%	D: 0.0%

COc1ccccc1N1CCN(c2ccc([N+](=O)[O-])nc2)CC1
  A: -7	B: 9%	C: -7%	D: -2.4%

O=C(NCC1CC1)c1cc(-c2ccccc2)nn1CC1CC(c2cccc([N+](=O)[O-])c2)=NO1 (stereo unspecified)
  A: .	B: -7%	C: .	D: -0.8%

CC(C)Cn1c(N)c(C(=O)COC(=O)c2c(F)cccc2F)c(=O)n(C)c1=O
  A: 4	B: 0%	C: 5%	D: 4.9%

COc1cccc(N(C(=O)CNC(=O)c2ccco2)C(C(=O)NC2CCCC2)c2cccnc2)c1 (stereo unspecified)
  A: .	B: -2%	C: -4%	D: 3.4%

Cc1ccc(C2/C(=C(/O)c3ccc4c(c3)CC(C)O4)C(=O)C(=O)N2CCCn2ccnc2)cc1 (stereo unspecified)
  A: .	B: -12%	C: -3%	D: 2.7%

C/C(=N\NC(=O)c1nn(C)c(C)c1Br)c1cccc(NC(=O)c2ccc(F)cc2)c1
  A: -2	B: 5%	C: -70%	D: 2.0%

O=C1NC(=O)C2(CCCc3ccccc32)N1 (stereo unspecified)
  A: .	B: -3%	C: -1%	D: -3.4%

O=C(COC(=O)C1=COCCO1)Nc1ncc(C(F)(F)F)cc1Cl
  A: -8	B: -2%	C: -2%	D: -0.4%

CC/C(CC(=O)C(F)(F)F)=N\NC(=O)/C(C#N)=C/N(C)C
  A: -10	B: -5%	C: 0%	D: 0.9%

CCC/C(=N\NC(=O)C1CC1)c1ccc(Br)cc1
  A: .	B: 23%	C: 13%	D: ?

Cc1ccc(-c2ocnc2C(=O)Nc2ccccc2C(=O)N2CCCC2)cc1
  A: .	B: -20%	C: 0%	D: -1.7%

CC(NC(=O)Cc1cccc(C(F)(F)F)c1)c1ccc(F)cc1 (stereo unspecified)
  A: -9	B: 7%	C: -13%	D: 4.7%

# More results
# Labels used below: A = GLA inh pH 4.5; B = Rango release inh; C = miR-21 reporter; D = Rango complex inh
COC(=O)c1cc(NC(=O)Cc2cccs2)cc(C(=O)OC)c1
  A: .	B: -14%	C: 4%	D: -3.9%

COCCCNC(=O)c1c(NC(=O)c2cccs2)sc2c1CCCC2
  A: 5	B: -9%	C: -6%	D: 0.8%

COc1ccccc1N1CCN(CC(=O)NC(=O)NCc2ccco2)CC1
  A: -5	B: 7%	C: -8%	D: 1.9%

COC(=O)NC1(C(F)(F)F)NC(=O)N(C2CCCCC2)C1=O (stereo unspecified)
  A: -3	B: 16%	C: -1%	D: 1.4%

COC(c1ccccc1)c1nnc(CCC(=O)NCCC(C)C)o1 (stereo unspecified)
  A: 5	B: 9%	C: -1%	D: 3.0%

Cc1ccc(NC2CCCN(C(=O)CN3C(=O)c4ccccc4C3=O)C2)cc1C (stereo unspecified)
  A: .	B: 1%	C: 0%	D: 0.8%

COc1ccc(C2NCCCC2c2ccccc2)cc1 (stereo unspecified)
  A: .	B: 0%	C: .	D: -0.5%

Oc1c(C(c2ccccc2)N2CCc3ccccc3C2)sc2ncnn12 (stereo unspecified)
  A: -5	B: 1%	C: 1%	D: -1.0%

Nc1n[nH]c(=S)n1/N=C1/C(=O)Nc2ccccc21
  A: -13	B: -2%	C: 0%	D: -0.7%

Cn1c(=O)c(/C=C/c2ccccc2)nc2ccccc21
  A: 13	B: ?	C: -67%	D: ?

CC(=O)c1c(C)[nH]c(C(=O)OCc2cc(-c3ccco3)on2)c1C
  A: .	B: -8%	C: .	D: -3.1%

CSc1ccccc1OCc1cc(C(=O)N(C)Cc2nonc2C)no1
  A: .	B: 11%	C: -62%	D: 0.0%

CCCCn1cc([N+](=O)[O-])nc1C
  A: 3	B: 1%	C: -1%	D: 2.4%

O=C(Nc1nnc(-c2ccncc2)s1)Nc1ccccc1F
  A: 3	B: 4%	C: -14%	D: 2.1%

CCn1c(=O)c(=O)n(CC)c2cc(S(=O)(=O)Nc3cc(C)ccc3C)ccc21
  A: .	B: -6%	C: 3%	D: -1.6%

# No new results follow: an excerpt of the list.
# Labels used below: A = GLA inh pH 4.5; B = Rango release inh; C = miR-21 reporter; D = Rango complex inh
Oc1c(C(c2ccccc2)N2CCc3ccccc3C2)sc2ncnn12 (stereo unspecified)
  A: -5	B: 1%	C: 1%	D: -1.0%

Nc1n[nH]c(=S)n1/N=C1/C(=O)Nc2ccccc21
  A: -13	B: -2%	C: 0%	D: -0.7%

# The results go on.
# Labels used below: A = GLA inh pH 4.5; B = Rango release inh; C = miR-21 reporter; D = Rango complex inh
Cc1ccc2nc(-c3ccc(NC(=S)NC(=O)C(C)C)cc3)sc2c1
  A: -5	B: -3%	C: -63%	D: 4.3%

O=C(CCCn1cnc([N+](=O)[O-])n1)Nc1cccc2ccccc12
  A: 3	B: -1%	C: -5%	D: -0.6%

COc1ccc(S(=O)(=O)NCCc2csc(-c3cccnc3)n2)cc1
  A: -12	B: 7%	C: -6%	D: 1.5%

Cn1nc2c(c1C(=O)O)CCCC2
  A: -10	B: 22%	C: -1%	D: 4.5%

CC1CN(C(=S)Nc2cccc(Cl)c2Cl)CC(C)O1 (stereo unspecified)
  A: .	B: -12%	C: 4%	D: 0.0%

O=C(CS(=O)c1cccc(Cl)c1)Nc1ccccc1Cl (stereo unspecified)
  A: -13	B: 2%	C: -9%	D: -3.0%

COc1ccc(NC(=O)N(Cc2ccc3c(c2)OCO3)C2CC(=O)N(c3ccc(OC)cc3)C2=O)cc1 (stereo unspecified)
  A: 0	B: -7%	C: -6%	D: 6.7%

Cc1cc(C(=O)CN2C(=O)c3ccccc3S2(=O)=O)c(C)n1-c1ccccc1
  A: -2	B: -8%	C: ?	D: 2.5%

O=C(COc1ccc(C(F)(F)F)cc1[N+](=O)[O-])Nc1cccc(C(F)(F)F)c1
  A: 6	B: -14%	C: -5%	D: -2.3%

CCOC(=O)c1ccc(NS(=O)(=O)CC)cc1
  A: -6	B: 0%	C: -2%	D: -0.2%

O=C(O)CSc1c(-c2ccccc2)[nH]c2ccccc12
  A: 0	B: 1%	C: -3%	D: -0.2%

O=C(CNS(=O)(=O)c1cccs1)N1CCN(c2ccccc2F)CC1
  A: .	B: 7%	C: -37%&-39%	D: 0.0%

CCC(CC)NC(=O)c1cc2c(C)nn(Cc3ccccc3Cl)c2s1
  A: -9	B: 2%	C: -23%	D: -3.3%

COc1ccc(S(=O)(=O)NC(C)C(=O)Nc2ccc3c(c2)OCO3)cc1OC (stereo unspecified)
  A: .	B: 2%	C: 7%	D: -3.3%

O=c1[nH]cnc2c1cnn2Cc1ccccc1
  A: -20	B: 7%	C: 2%	D: -1.5%

# Later entries:
# Labels used below: A = GLA inh pH 4.5; B = Rango release inh; C = miR-21 reporter; D = Rango complex inh
CCOC(=O)c1sc(NC(=O)Cc2ccc(C)cc2)nc1C
  A: 2	B: 1%	C: -11%	D: -4.9%

CCCSc1ccc2nc(-c3ccccc3)cn2c1
  A: -3	B: -4%	C: ?	D: -3.4%

CC1CCN(c2ccc([N+](=O)[O-])cc2C(=O)O)CC1
  A: 1	B: -24%	C: 1%	D: 2.7%

CC1CCN(S(=O)(=O)c2ccc(C(C)C)cc2)CC1
  A: 9	B: 1%	C: -1%	D: 1.3%

O=C(CCn1nnc(-c2cccs2)n1)NC1CCCCC1
  A: 4	B: -1%	C: -1%	D: 3.6%

COc1ccc(-c2cc(C(=O)OCc3ccccn3)c3ccccc3n2)cc1
  A: .	B: -7%	C: -17%	D: -4.4%

CC(=O)NC1C(=O)N(CCc2ccccc2)c2ccc(Br)cc21 (stereo unspecified)
  A: -7	B: 7%	C: 19%	D: -0.3%

CN(C)S(=O)(=O)c1cccc(NC(=O)COC(=O)c2cccnc2Cl)c1
  A: .	B: -1%	C: .	D: -2.8%

O=C1C=CC(=O)N1
  A: .	B: 1%	C: .	D: ?

Cc1ccc2c(c1)c1c(n2CCc2ccc(C)nc2)CCN(C)C1
  A: .	B: 3%	C: .	D: -2.1%

COc1ccc(Cn2c(C)c(C)c(C#N)c2NC(=O)Nc2ccc(F)cc2)cc1
  A: -1	B: 4%	C: 0%	D: 4.9%

CCCCCC(=O)Nc1cccc(C2=NOC3(C2)C[C@@H](C(N)=O)N(C(=O)c2ccc(OC)cc2)C3)c1 (stereo partly specified)
  A: -7	B: -8%	C: 1%	D: ?

CCOC(=O)C1=CN(Cc2cccc(Br)c2)S(=O)(=O)N(C)C1C (stereo unspecified)
  A: .	B: 1%	C: .	D: -0.1%

Cc1ccc(-c2ccc(=O)n(CC(=O)NCC3COCCO3)n2)cc1 (stereo unspecified)
  A: .	B: -21%	C: 0%	D: -0.8%

CC(C)c1ccc(S(=O)(=O)N2CCN(C(=O)CN3C(=O)NC4(CCCC4)C3=O)CC2)cc1
  A: .	B: 9%	C: 0%	D: ?
